Six1-Eya2 blk – inhibitors of human Six1/Eya2 interaction; AlphaScreen GST-Six1/His-Eya2 binding, biochemical; stronger effect = lower value; control for the full effect not named in the record; 360,000 compounds, 0.56% hits; activity change, % (test concentration not listed); AID 651725; in the data active = activity change below about -65%; inconclusive = about -30% to -65%; inactive = above about -30%; also: % is scaled to controls: 0 for no effect and ±100 for the full control effect
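GST-Six1 + His-Eya2 (5X stock: 250/500 nM); Tris pH 8.0, 300 mM NaCl, 0.05% BSA, 0.02% Tween 20; GSH donor/Ni acceptor beads; 1 h 37 °C dark; AlphaScreen readout.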
TRPV1 potentiator – enhances activation of the human vanilloid receptor TRPV1; Q8NER1; TRPV1-expressing cells, Fluo-8 calcium influx, capsaicin EC20 potentiation; host cell line not named in the record; control for the full effect not named in the record; potentiation, % at 8.33 µM; 320,000 compounds, 0.02% hits; active means potentiation above 80%; inconclusive means 30% to 80%; inactive means below 30%; also: 0% is about no effect
Target sequence (Q8NER1 whole entry, looked up): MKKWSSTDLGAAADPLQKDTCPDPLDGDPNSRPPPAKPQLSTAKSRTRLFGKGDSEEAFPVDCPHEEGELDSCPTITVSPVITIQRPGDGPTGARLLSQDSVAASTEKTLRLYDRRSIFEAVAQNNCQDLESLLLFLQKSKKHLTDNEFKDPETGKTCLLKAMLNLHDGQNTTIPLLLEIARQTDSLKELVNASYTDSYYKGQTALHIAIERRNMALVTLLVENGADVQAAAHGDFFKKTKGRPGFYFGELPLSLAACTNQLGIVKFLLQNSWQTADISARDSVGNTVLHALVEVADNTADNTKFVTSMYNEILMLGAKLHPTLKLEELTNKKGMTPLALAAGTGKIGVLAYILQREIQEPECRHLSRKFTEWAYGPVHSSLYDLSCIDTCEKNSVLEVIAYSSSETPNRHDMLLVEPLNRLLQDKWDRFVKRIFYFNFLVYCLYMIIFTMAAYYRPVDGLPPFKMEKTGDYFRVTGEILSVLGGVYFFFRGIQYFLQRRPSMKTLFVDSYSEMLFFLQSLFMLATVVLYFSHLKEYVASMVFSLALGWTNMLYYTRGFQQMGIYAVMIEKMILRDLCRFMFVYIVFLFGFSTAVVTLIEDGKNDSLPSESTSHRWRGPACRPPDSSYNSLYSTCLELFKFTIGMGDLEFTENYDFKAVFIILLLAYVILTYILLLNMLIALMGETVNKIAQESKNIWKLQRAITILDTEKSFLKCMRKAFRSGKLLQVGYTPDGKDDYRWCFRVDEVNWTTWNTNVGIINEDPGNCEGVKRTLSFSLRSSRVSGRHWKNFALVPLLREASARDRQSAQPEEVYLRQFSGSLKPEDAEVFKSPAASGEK
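Cells expressing TRPV1 were dye-loaded with Fluo-8 and read kinetically: 10 s baseline, 3 min after compound (agonist portion), then 2 min after EC20 capsaicin (allosteric enhancer portion). Calcium-bound dye fluorescence at 480/520 nm.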
CtBP-E1A inh – inhibitors of CtBP/E1A interaction; activity change, % (no concentration beside the values); AID 651724; AlphaScreen GST-E1A/His-CtBP binding, 1536-well; stronger effect = lower value; control for the full effect not named in the record; 340,000 compounds, 0.49% hits; in the data active means activity change below about -65%; inconclusive means about -30% to -65%; inactive means above about -30%; also: % is scaled to controls: 0 for no effect and ±100 for the full control effect
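Protein mix (5X: 125 nM each GST-E1A, His-CtBP) was incubated with pinned compound 2 h at 37 deg C in dark, in 50 mM Tris pH 8.0 buffer with 300 mM NaCl. Glutathione donor and nickel acceptor beads followed; AlphaScreen signal read after 1 h.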
Sfp inh – blocks B. subtilis Sfp PPTase activity. Q9F4F7. Biochemical Sfp PPTase activity, qHTS. Potency, µM, for inactives: max response, negative = inhibition, usual class: inhibitors. 310,000 compounds, 3.5% hits; active = well fitted inhibition curve with a large enough effect; inconclusive = small, poorly fitted or top-dose-only effect, or another doubt; inactive = no such curve, though single readings can be large or run the other way;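 also: the enzyme is Sfp with the accession as filed and its product quenches rhodamine fluorescence; potency is read from the fitted curve at half-maximal effect; 0% = enzyme reaction without inhibitor and -100% = no enzyme wells; top concentration of the series not given in the record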
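Fluorescence-quenching assay with 15 nM Sfp, 5 uM rhodamine-CoA and 12.5 uM BHQ-2-labelled ybbR peptide in pH 7.6 Hepes/MgCl2 buffer. Enzyme was pre-incubated with compound for 15 min at room temperature. Rate was taken from the 30-min fluorescence change (525/598 nm).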
D2 agonist – human D2 receptor agonism in beta-arrestin assay. activation, % (concentration not given with the values). P14416. 360,000 compounds, 0.084% hits. DiscoveRx PathHunter D2 beta-arrestin, luminescence, 90 min; 100% = 57 uM dopamine signal; in the data active = activation above about 40%; inconclusive = about 15% to 40%; inactive = below about 15%; also: the text of the record calls up to 30% inactive
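Agonist mode: compounds alone added to overnight-plated D2 PathHunter cells for 90 min at 37 C, with 57 uM final dopamine (EC100) defining full response. Beta-arrestin recruitment detected by chemiluminescent reagent, read after 1 h at ambient temperature.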
D2 potentiator – positive allosteric modulators of human D2 dopamine receptor; DiscoveRx D2 beta-arrestin cells, luminescence, 90 min; 100% = 57 uM dopamine signal; potentiation, % (concentration not given with the values); 360,000 compounds, 0.23% hits; active = potentiation of 50% or more; inconclusive = 30% to 50%; inactive = 30% or less;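 also: tested on top of an EC20 dose of dopamine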
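PathHunter beta-arrestin assay in DiscoveRx D2 cells. Compounds were added with an EC20 of dopamine (50 nM final) for 90 min at 37 deg C. Luminescence was read 1 h after detection reagent, with 57 uM dopamine as the EC100 control.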
PINK1 expr mod – modulators of PINK1 expression; PINK1 immunofluorescence, high-content cytometry, 24 h; Potency, µM (highest dose often 76.6 µM), for inactives: at the highest dose activation (PINK1 increase), most hits filed as activators; 410,000 compounds, 0.2% hits; AID 624263; active = well fitted activation curve with a large enough effect; inconclusive = small, poorly fitted or top-dose-only effect; inactive = flat fitted curve, though single readings scatter; cell line not stated here;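 also: potency is read from the fitted curve at half-maximal effect; % of control where 0% means no effect; nearly all actives have a fitted effect of over 65% in size; a mitochondrial uncoupler was the plate control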
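Stable cell line treated 24 h with compounds at 5 concentrations (CCCP controls), then fixed and immunostained for PINK1 plus nuclear and cell stains; PINK1 immunofluorescence quantified by laser-scanning microplate cytometry.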
* marks the source's active call; other numbers are inactive results; ? = inconclusive; nt = not tested or not shown; & = joins results of further samples; [ ] = dose if it differs, or a comment.

Labels used below – A = Six1-Eya2 blk; B = TRPV1 potentiator; C = CtBP-E1A inh; D = Sfp inh; E = D2 agonist; F = D2 potentiator; G = PINK1 expr mod
OC[C@H]1O[C@H](OCc2ccccc2)[C@H](O[C@@H]2OC[C@@H](O)[C@H](O)[C@H]2O)[C@@H](O)[C@@H]1O
  A: 0.8	B: -10.0	C: 1.4	D: nt	E: -1.0	F: -0.5	G: 1.4%

CCn1c(SCC(=O)Nc2ccc(OC)c(OC)c2)nnc1-c1cccs1
  A: -3.0	B: -4.8	C: 0.5	D: 13.7%	E: 10.6	F: 3.6	G: -2.1%[38.3 µM]

Cn1c(=O)[nH]c(=O)c2c1nc(N1CCCC1)n2CCCSc1nc2ccccc2o1
  A: -0.6	B: -4.9	C: -2.8	D: -25.7%	E: -0.2	F: -0.3	G: -0.8%

CCSc1nc(CC)c2c(c1C#N)CCCC2
  A: 50.6	B: ?	C: 20.4	D: -3.1%	E: -1.0	F: -4.8	G: 3.3%

COc1ccccc1-c1c(C)nn2c(C)cc(C)nc12
  A: 0.4	B: 0.0	C: 1.5	D: 22.0%	E: -2.7	F: -1.2	G: 4.3%

Cc1cccc(NC(=O)CCS(=O)(=O)c2ccc3c(c2)oc(=O)n3C)c1
  A: 2.0	B: 28.5	C: -5.6	D: 16.0%	E: 2.3	F: 2.9	G: 2.5%

COc1ccc(CCN2C(=O)c3[nH]nc(-c4ccccc4O)c3C2c2ccc(C)cc2)cc1OC (stereo unspecified)
  A: -18.2	B: 2.6	C: -8.9	D: -7.2%	E: -0.2	F: -12.6	G: 1.2%

O=C(NNC(=S)NC1CCCCC1)c1ccccc1Cl
  A: 7.4	B: 14.9	C: 9.0	D: -7.5%	E: -13.5	F: -9.1	G: 2.3%

CC(C)OCCCNC(=O)Cn1ccc2cc(S(=O)(=O)N3CCCCCC3)ccc21
  A: 19.3	B: 0.1	C: 19.1	D: 22.7%	E: -1.5	F: -3.9	G: -0.4%&0.0%

COc1cc(C(=O)NC(=S)Nc2ccc([N+](=O)[O-])cc2C)cc(OC)c1OC
  A: -1.2	B: -3.6	C: 0.2	D: ?	E: -5.1	F: -18.1	G: 13.2%

COc1ccc(/C(C)=N/OC/C(O)=C(\C#N)c2nc3ccccc3[nH]2)c(OC)c1
  A: -3.0	B: 2.0	C: -5.4	D: 19.4%	E: -2.1	F: -0.9	G: 18.1%

N#C/C(=C(/O)c1ccc([N+](=O)[O-])cc1)c1nnc2n1CCCCC2
  A: -1.5	B: 2.6	C: 4.7	D: -8.0%	E: -3.0	F: -2.1	G: 0.4%

O=C(N[C@@H](Cc1ccccc1)C(=O)O)c1cccs1
  A: -5.1	B: 4.4	C: 7.2	D: 10.5%	E: -4.4	F: -8.7	G: 3.1%

Cc1nn(-c2ccccc2)c(N2CCCC2)c1/C=N/NC(=O)c1cc(-c2ccccc2)nc2ccccc12
  A: ?	B: -2.3	C: -17.2	D: 16.2%	E: -2.2	F: 8.1	G: 1.6%

O=c1[nH][nH]c2c1[C@H](c1ccc(Cl)cc1)O[C@H](C1CCCC1)C2
  A: 0.2	B: nt	C: 1.4	D: nt	E: nt	F: nt	G: 2.6%

Whole records, looked up by structure. Screens in order: Six1-Eya2 blk, TRPV1 potentiator, CtBP-E1A inh, Sfp inh, D2 agonist, D2 potentiator, PINK1 expr mod
CCn1c(SCC(=O)Nc2ccc(OC)c(OC)c2)nnc1-c1cccs1 in the list: -3.0, -4.8, 0.5, 13.7%, 10.6, 3.6, -2.1%[38.3 µM]
Cn1c(=O)[nH]c(=O)c2c1nc(N1CCCC1)n2CCCSc1nc2ccccc2o1 in the list: -0.6, -4.9, -2.8, -25.7%, -0.2, -0.3, -0.8%
N#C/C(=C(/O)c1ccc([N+](=O)[O-])cc1)c1nnc2n1CCCCC2 in the list: -1.5, 2.6, 4.7, -8.0%, -3.0, -2.1, 0.4%

(list continues)
Labels used below – A = Six1-Eya2 blk; B = TRPV1 potentiator; C = CtBP-E1A inh; D = Sfp inh; E = D2 agonist; F = D2 potentiator; G = PINK1 expr mod
COc1ccc(-n2c(C)cc(C(=O)CN3CCC(C)CC3)c2C)cc1
  A: -9.2	B: 4.4	C: -7.5	D: 4.6%	E: -2.5	F: 0.0	G: 2.1%

Cc1ccc(N2C(=O)C(O)(C(F)(F)F)C3=C2CC(C)(C)CC3=O)cc1C (stereo unspecified)
  A: 4.1	B: 1.9	C: -0.8	D: 4.9%	E: -2.9	F: -2.4	G: 6.4%[38.3 µM]

Cc1cc(C)nc(Sc2c(C)n[nH]c2C)n1
  A: 5.2	B: -6.8	C: -1.5	D: 6.3%	E: 1.2	F: -9.4	G: -0.4%[38.3 µM]

CCOC(=O)[C@]12CCC=C1N(Cc1ccccc1)C(=O)[C@H](CC(=O)NCc1cccs1)C2
  A: -0.6	B: nt	C: 1.8	D: nt	E: nt	F: nt	G: -0.1%

Cc1ccc(N2C(=O)CC(N3CCN(C4CCc5ccccc5C4)CC3)C2=O)cc1 (stereo unspecified)
  A: -2.0	B: -5.5	C: -2.2	D: -16.3%	E: -3.0	F: -41.0	G: 3.3%

Cn1c(=O)n(C)c2cc(C(=O)c3ccccc3)ccc21
  A: -7.8	B: -6.2	C: 3.4	D: -8.3%	E: -0.2	F: -3.1	G: 0.5%[38.3 µM]

O=C(CCCn1nnnc1CN1CCOCC1)N1CCC(c2ccccc2F)C1 (stereo unspecified)
  A: 1.7	B: 4.0	C: 12.1	D: 5.2%	E: -0.1	F: -1.4	G: 0.5%

Cc1[nH]c(C)c(S(=O)(=O)N(Cc2ccccc2)C(C)C)c1C(=O)N1CCCC1
  A: 5.5	B: -8.3	C: 1.4	D: -0.5%	E: -3.4	F: -10.0	G: -0.5%

O=C(Cc1cnc2ncnn2c1)N1CCc2c([nH]c3ccccc23)C1c1ccccn1 (stereo unspecified)
  A: 5.4	B: -7.0	C: -24.4	D: -25.5%	E: 0.1	F: 1.6	G: 1.0%

Cc1cnc(C(=O)N2CCCC(C(=O)c3ccc(Cl)cc3C)C2)cn1 (stereo unspecified)
  A: 0.2	B: -3.6	C: -28.7	D: 4.5%	E: 3.1	F: -8.9	G: 0.1%

CCCC(C(=O)NC(C)(C)CC)N(Cc1ccco1)C(=O)CNS(=O)(=O)c1ccccc1 (stereo unspecified)
  A: -6.7	B: -12.7	C: -23.4	D: 10.2%	E: 0.2	F: -3.1	G: 3.7%

CS(=O)(=O)c1ccc(Cl)c(C(=O)NCC2CCCCC2)c1
  A: 5.5	B: -9.5	C: nt	D: 5.3%	E: -0.5	F: -8.0	G: 0.0%

O=c1c2cc3c(nc2[nH]c(=S)n1-c1ccccc1)CCCC3
  A: 5.9	B: 9.4	C: 4.6	D: 19.9%	E: 2.7	F: -4.9	G: 5.5%

Cc1ccc(C(=O)NC(=S)NCc2cccnc2)cc1
  A: 7.7	B: -14.2	C: nt	D: ?	E: -0.6	F: -3.0	G: 2.7%

Cc1ccc(S(=O)(=O)N2CCN(C(=O)Cn3c(=O)oc4ccccc43)CC2)c(C)c1
  A: 2.5	B: -18.3	C: 3.7	D: nt	E: -1.5	F: 0.4	G: -2.1%

CCOc1ccc(Nc2ccc([N+](=O)[O-])c3nonc23)cc1
  A: 2.3	B: 3.7	C: nt	D: -19.1%	E: -11.8	F: -64.8	G: ?

CCC(C)(C)n1nnnc1C(c1cc2cc(C)cc(C)c2[nH]c1=O)N1CCN(C(=O)c2ccco2)CC1 (stereo unspecified)
  A: 5.4	B: -1.1	C: 9.9	D: 44.7µM*	E: 2.3	F: -11.9	G: nt

CN1C(C(=O)Nc2ccc(OC(F)(F)F)cc2)=CC(c2ccc3c(c2)OCO3)=NS1(=O)=O
  A: -9.5	B: 5.4	C: -5.7	D: 20.7%	E: 2.2	F: -2.2	G: 6.4%&-1.6%

CC(C)(C)n1nnnc1C(c1cccnc1)N(Cc1ccccc1)Cc1cccs1 (stereo unspecified)
  A: -11.7	B: -6.0	C: -8.5	D: 4.4%	E: 2.4	F: 12.3	G: 13.2%

CCOC(=O)c1c(-c2ccc(C)cc2)csc1NC(=O)c1ccc(N2C(=O)CCC2=O)cc1
  A: 4.1	B: -5.0	C: 1.8	D: -6.4%	E: 0.8	F: -6.7	G: 12.2%

N#C/C(=C\c1ccc2c(c1)OCCO2)C(=O)Nc1ccc(C(=O)O)cc1
  A: 4.0	B: -14.8	C: nt	D: 4.6%	E: -1.1	F: -6.1	G: 0.1%

COc1ccccc1-c1n[nH]c(=S)n1-c1ccccc1
  A: 3.1	B: 0.1	C: 4.3	D: -13.1%	E: 2.0	F: -14.4	G: -2.0%

Cc1cc(NC(=O)COc2ccc3ccccc3c2Br)no1
  A: -8.3	B: nt	C: nt	D: nt	E: 13.3	F: -5.5	G: 11.7%

CCn1c(/C=C/c2c(C)n(CC)c3ccccc23)nc2ccccc2c1=O
  A: 1.5	B: -2.0	C: 1.0	D: -1.3%	E: -1.0	F: -1.1	G: 17.8µM*

CN(C)c1ccc(C=O)c(Oc2ccccc2)c1
  A: -1.9	B: nt	C: 2.0	D: nt	E: -0.6	F: -0.2	G: 10.6%

Cc1c(C(=O)NC(C)c2ccc(-n3ccnc3)cc2)cccc1[N+](=O)[O-] (stereo unspecified)
  A: -5.0	B: -1.0	C: -2.2	D: 14.5%	E: 0.0	F: -15.2	G: 2.2%

COc1ccc(C(=O)NCCc2nnc(SCC(=O)Nc3ccc(Br)cc3)n2C)cc1
  A: -2.2	B: 2.8	C: 3.6	D: 11.9%	E: -0.2	F: -6.8	G: 0.4%[38.3 µM]

CCc1ccccc1OCCCCCNCCO
  A: -1.7	B: -5.3	C: 1.5	D: 4.5%	E: -0.6	F: -14.3	G: -9.5%[38.3 µM]

Cc1c(C(=O)N2CCN(c3ccc(F)cc3)CC2)oc2c1C(=O)CCC2
  A: -6.5	B: -15.8	C: nt	D: 4.4%	E: 3.3	F: -4.2	G: -0.1%

O=S(=O)(NCCc1cn2ccccc2n1)c1ccc2c(c1)CCCC2
  A: 2.0	B: 4.3	C: 0.9	D: -3.9%	E: -2.3	F: -8.0	G: 0.9%

CC(=O)C(Cc1ccccc1)NC(=O)COC(=O)CCN1C(=O)C2CC=CCC2C1=O (stereo unspecified)
  A: -11.1	B: -6.3	C: 0.8	D: nt	E: -3.0	F: -7.1	G: -1.1%

Cc1ccc(-n2nc3c(c2NC(=O)C2CC2)CS(=O)(=O)C3)cc1C
  A: -1.0	B: -0.7	C: 3.7	D: -4.5%	E: -2.0	F: 21.9	G: ?

O=c1[nH]c(N/N=C\c2ccc3c(c2)OCO3)nc2ccccc12
  A: ?	B: -9.5	C: -68.4*	D: 20µM*	E: -3.4	F: -3.1	G: 5.2%
